Menin MLL FP FL – displaces fluorescein MLL peptide from human menin; 290,000 tested, under 10 active; Fluorescence polarization, fluorescein-MLL peptide displacement from menin; FP activity change, % at 61.4 µM; inconclusive = falling polarisation curve, or a change in total fluorescence; inactive = total fluorescence flat and polarisation flat or rising; no compound was filed as active; the % refers to the polarisation; negative = inhibition;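 also: % of control where 0% means no effect; inhibitors lower the polarisation; unlabelled MLL peptide was the positive control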
ClpP mod – qHTS Assay for Activators of ClpP. ATP-dependent Clp protease proteolytic subunit (Bacillus subtilis (strain 168)), P80244. purified B. subtilis ClpP, FRET peptide cleavage, 20 min. Potency, µM (titrated, usually from 57.5 µM), without a hit: at the top dose activity change, negative = active. 340,000 compounds, 1.9% hits. AID 651965, 2013; active = well fitted falling curve with a large enough effect; inconclusive = small, poorly fitted or top-dose-only effect; inactive = no such curve, though single readings can be large or run the other way; also: potency is read from the fitted curve at half-maximal effect; the source files actives as falling curves though it sought activators and does not explain the sign; nearly all actives have a fitted effect of over 65% in size; many hits overshoot -100%
Target sequence (P80244 whole entry, looked up): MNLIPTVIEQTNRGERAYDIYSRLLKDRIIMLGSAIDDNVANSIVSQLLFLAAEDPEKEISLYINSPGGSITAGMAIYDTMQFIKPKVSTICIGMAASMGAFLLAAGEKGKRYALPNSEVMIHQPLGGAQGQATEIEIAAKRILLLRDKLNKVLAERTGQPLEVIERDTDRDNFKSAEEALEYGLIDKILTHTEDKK
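Purified B. subtilis ClpP, 10 microg/mL final in Tris/HCl pH8 with KCl, BSA, glycerol and Tween-20, cleaved an Abz/nitrotyrosine-quenched decapeptide. Fluorescence (ex 320, em 430) was read at 0 and 20 min at room temperature. Delta was normalized to 5.8 microM ADEP and DMSO/no-enzyme controls.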
TRPV1 PAM – enhances activation of the human vanilloid receptor TRPV1; Q8NER1; TRPV1-expressing cells, Fluo-8 calcium influx, capsaicin EC20 potentiation; host cell line not named in the record; control for the full effect not named in the record; potentiation, % at 8.33 µM; 320,000 compounds, 0.02% hits; active means potentiation above 80%; inconclusive means 30% to 80%; inactive means below 30%; also: 0% is about no effect
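TRPV1-expressing cells were cultured overnight at 35.5C and loaded with Fluo-8 calcium dye for 40 to 90 min at room temperature. After a 10 s baseline, compound was added and calcium influx was read kinetically for 3 min (ex 480/em 520 nm).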
gsp agonist – activates gsp, the McCune-Albright syndrome mutation | 340,000 compounds, 0.13% hits | Potency, µM (highest dose often 76.9 µM), for inactives: at the top dose activation (cAMP increase), usual class: activators | gsp mutant cells, cAMP HTRF, 30 min; control for the full effect not named in the record; active = well fitted activation curve with a large enough effect; inconclusive = small, poorly fitted or top-dose-only effect, or another doubt; inactive = no such curve, though single readings can be large or run the other way; cell line not stated here;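 also: phosphodiesterase inhibitor Ro 20-1724 added with compounds to block cAMP breakdown; potency is read from the fitted curve at half-maximal effect; nearly all actives have a fitted effect of over 60% in size; about a fifth of the inactives were tested at one dose only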
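Cells in DMEM/10% FBS with G418 were pretreated with compounds in DMSO plus […] (300 uM stock) for 30 min at 37C. cAMP was measured by HTRF (cAMP-d2 plus anti-cAMP antibody-K) after 30 min at room temperature.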
Sfp inh – blocks B. subtilis Sfp PPTase activity | Q9F4F7 | Biochemical Sfp PPTase activity, qHTS | Potency, µM, for the others: max response, negative = inhibition, hits mostly inhibitors | 310,000 compounds, 3.5% hits; active = well fitted inhibition curve with a large enough effect; inconclusive = small, poorly fitted or top-dose-only effect, or another doubt; inactive = no such curve, though single readings can be large or run the other way;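 also: the enzyme is Sfp with the accession as filed and its product quenches rhodamine fluorescence; potency is read from the fitted curve at half-maximal effect; 0% = enzyme reaction without inhibitor and -100% = no enzyme wells; top concentration of the series not given in the record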
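Fluorescence-quenching assay with 15 nM Sfp, 5 uM rhodamine-CoA and 12.5 uM BHQ-2-labelled ybbR peptide in pH 7.6 Hepes/MgCl2 buffer. Enzyme was pre-incubated with compound for 15 min at room temperature. Rate was taken from the 30-min fluorescence change (525/598 nm).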
D2 potentiator – positive allosteric modulators of human D2 dopamine receptor; AID 624464; P14416; potentiation, % (concentration not given with the values); DiscoveRx D2 beta-arrestin cells, luminescence, 90 min; 100% = 57 uM dopamine signal; 360,000 compounds, 0.23% hits; active = potentiation of 50% or more; inconclusive = 30% to 50%; inactive = 30% or less;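 also: tested on top of an EC20 dose of dopamine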
Target sequence (P14416 whole entry, looked up): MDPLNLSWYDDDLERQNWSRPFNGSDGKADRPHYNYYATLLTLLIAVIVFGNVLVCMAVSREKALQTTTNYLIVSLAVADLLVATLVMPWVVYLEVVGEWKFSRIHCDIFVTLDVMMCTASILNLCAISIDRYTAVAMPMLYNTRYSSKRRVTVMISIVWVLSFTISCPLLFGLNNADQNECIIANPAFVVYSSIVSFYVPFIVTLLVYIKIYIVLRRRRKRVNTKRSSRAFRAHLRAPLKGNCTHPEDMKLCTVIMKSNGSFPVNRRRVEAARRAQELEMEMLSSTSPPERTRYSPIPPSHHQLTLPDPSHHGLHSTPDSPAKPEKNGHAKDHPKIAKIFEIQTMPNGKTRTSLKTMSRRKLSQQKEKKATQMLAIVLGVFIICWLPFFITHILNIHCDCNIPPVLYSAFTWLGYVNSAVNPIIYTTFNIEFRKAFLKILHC
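PathHunter beta-arrestin assay in DiscoveRx D2 cells. Compounds were added with an EC20 of dopamine (50 nM final) for 90 min at 37 deg C. Luminescence was read 1 h after detection reagent, with 57 uM dopamine as the EC100 control.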
gsp antagonist – gsp mutant antagonism; gsp-mutant cells, cAMP HTRF, 30 min; control for the full effect not named in the record; Potency, µM (titrated, usually from 76.9 µM), without a hit: top-dose activity change, negative = inhibition, actives largely listed as inhibitors; 340,000 compounds, 0.4% hits; active = falling curve of any shape with a large fitted effect; inconclusive = falling curve, mostly with a smaller effect; inactive = flat or rising curve; cell line not stated here;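 also: intracellular cAMP measured with PDE inhibitor Ro 20-1724 present during compound exposure; potency is read from the fitted curve at half-maximal effect; % is scaled to controls: 0 for no effect and ±100 for the full control effect; nearly all actives have a fitted effect of over 65% in size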
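Measurement of cellular cAMP by homogeneous time-resolved fluorescence following a 30 min compound exposure at 37C. The PDE inhibitor […] was present throughout; the assay buffer was DPBS with 0.05% BSA and 0.005% Tween 20.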
* hit, by the source's call; ? = inconclusive; . = not tested or not shown; & = joins results of further samples; [ ] = remark or other dose.

Each structure is followed by: Menin MLL FP FL	ClpP mod	TRPV1 PAM	gsp agonist	Sfp inh	D2 potentiator	gsp antagonist
O=C(Nc1ccc(Br)cc1Br)C1CC(=O)N(Cc2ccccc2)C1 (stereo not given)
 : .	-2.1%	4	3%[15.4 µM]	18%	-16	-4%
CCC(C)N(C(=O)Cn1nc(C)c([N+](=O)[O-])c1C)C1CCS(=O)(=O)C1 (stereo not given)
 : .	-0.8%	-12	-4%	.	-19	2%
O=C(c1ccc(F)cc1)N1CCN(c2ccccn2)CC1
 : 0.8	.	24	-21%	14%	2	-10%
CCC1CCCCN1CCCNC(=O)c1ccc2c(c1)NC(=O)CN2C (stereo not given)
 : .	-12%	-13	5%	16%	-6	3%
CC[C@H](CO)NCCN[C@H](CC)CO
 : -9.4	1.9%	19	.	-23%	-3	2%
COc1ccc(CNC(=O)CCC(=O)N2CC(C)Oc3ccccc32)cc1 (stereo not given)
 : -4.5	-1.1%	-14	-2%	26%	-10	-2%
CSCCC(NC(=O)c1ccc(Cl)cc1)C(=O)OCC(=O)Nc1ccc(C#N)cc1 (stereo not given)
 : 3.3	-2.4%	0	-19%	-10%	14	-4%
CN1C(=O)[C@H]2[C@@H](C3CC3)N3C(=O)CN(Cc4ccccn4)C(=O)[C@@]3(Cc3ccccc3)[C@H]2C1=O
 : -3.3	1.4%	12	-26%	22%	0	9%
O=C(COC(=O)C1CC1)NCc1ccc(Cl)cc1Cl
 : .	-4.0%	.	-11%	.	-2	2%
Cc1cc(C)c(S(=O)(=O)NCCc2cc3ccc(C)c(C)c3[nH]c2=O)c(C)c1
 : -2.4	0.5%	-6	-12%	2%	1	-12%
COc1ccc(-n2nnnc2SCC(=O)Nc2nnc(C)s2)cc1OC
 : -7.2	0.5%	-5	-2%	2%	-3	-9%
C=CCNC(=O)N1CCC(c2nc3ccccc3s2)CC1
 : -2.6	.	?	-4%	10%	3	-3%
COC(=O)C1=C[C@@H](C(=O)OC)[C@@H]2C3=C(C(=O)[C@]2(CC(C)C)NC(=O)c2ccccc2)[C@H](C)n2c(=O)n(-c4ccccc4)c(=O)n2[C@@H]3C1
 : .	1.1%	.	?	.	-2	2%
CCOc1ccccc1Oc1c(C)oc2cc(OC(=O)N3CCOCC3)ccc2c1=O
 : 1.6	-1.1%	.	-7%	-8%	-2	-2%
COc1ccc(Br)cc1-c1nc(CCl)cs1
 : -5.6	-0.7%	-16	?	0%	-6	6%
CC(=O)c1ccc(NC(=S)Nc2cccc3cnccc23)cc1
 : -7.8	.	19	10%	2.5µM*	8	-1%
CC1(CCc2ccccc2)NC(=O)N(CC(=O)O)C1=O (stereo not given)
 : 0.4	1.6%	-3	-26%	18%	-1	12%
Cc1c(NC(=O)c2cccs2)cccc1C(=O)O
 : 2.1	-2.5%	9	-26%	21%	12	-4%
CCCCCC(=O)N1C[C@H](O)[C@@H](n2cc(-c3ccc(F)cc3)nn2)C[C@@H]1c1ccccc1
 : .	-0.2%	.	-40%[inhibitor]	.	-2	.
Cc1cc(C)cc(NC(=O)C(=O)NCCc2c[nH]c3ccccc23)c1
 : -0.5	-2.4%	5	-4%	20%	-1	1%

The list continues:
Each structure is followed by: Menin MLL FP FL	ClpP mod	TRPV1 PAM	gsp agonist	Sfp inh	D2 potentiator	gsp antagonist
CC1(C)CC2(CC(c3ccccc3)c3ccc(O)cc3O2)NC(=S)N1 (stereo not given)
 : 4.5	1.5%	0	0%[15.4 µM]	0%	-2	9%
Cc1ccc(C)c(NC(=O)CN(C)C(=O)c2sccc2C)c1
 : .	.	-4	-25%[15.4 µM]	.	-1	7%
Cc1ccc(/C=N/Nc2ccc(Cl)nn2)cc1
 : 3.0	-0.5%	12	-7%	2%	-11	1%
O=C(Cn1c2ccccc2c(=O)c2ccccc21)N/N=C/c1ccc(N2CCCC2)c([N+](=O)[O-])c1
 : -3.0	-17%	5	8%[15.4 µM]	-11%	-7	1%
O=C(O)CCCN1C(=O)/C(=C\c2ccco2)SC1=S
 : ?	-0.5%	6	-5%	18µM*	-11	-14%
Cc1ccc(C(=O)c2ccc(CC(=O)O)n2C)cc1
 : -3.3	-1.5%	1	.	19%&46%	-8	-19%
COc1cccc2c(=O)c(C(=O)O)c[nH]c12
 : 0.6	22µM*	28	-54%	-10%	0	13%
COc1cccc(C(=O)C2CCCN(C(=O)c3ccc(C#CC(C)(C)O)cc3)C2)c1 (stereo not given)
 : 2.5	-1.7%	9	-3%	14%	1	-4%
N#CC1=C(SCC(=O)NC2CCCCC2)NC(=O)CC1c1ccco1 (stereo not given)
 : 0.2	-1.3%	-12	-42%	?	-3	-12%
CC(=O)c1ccc(S(=O)(=O)NCCC(=O)N2CCN(c3ccccn3)CC2)cc1
 : .	-22%	-1	-1%	.	18	3%
O=C(COc1ccc(Cl)cc1Cl)NCC1(N2CCOCC2)CCCCC1
 : .	1.1%	.	-22%[15.4 µM]	.	-4	-17%
COC1c2ccccc2C(=O)N1CCc1ccc(Cl)cc1 (stereo not given)
 : 2.9	1.2%	-28	0%	-2%	-1	-5%
CC(C)N(C(=S)NCc1ccccc1)c1ccccc1
 : -0.8	.	?	6%[15.4 µM]	-27%	-10	-3%
O=C(OCc1ccccc1)N1CCC2CC1c1ccc(N3CCNCC3)cc12 (stereo not given)
 : .	-2.1%	.	0%	.	-1	.
COC(=O)Cc1ccc(NC(=S)NCc2ccco2)cc1
 : -1.1	.	-18	-11%[15.4 µM]	26%	5	8%
O=C(O)CC1S/C(=N/N=C/c2ccc(-c3ccc(Cl)c([N+](=O)[O-])c3)o2)NC1=O (stereo not given)
 : -0.4	.	?	-2%[15.4 µM]	-18%	-6	-6%
CCN(CC)C(=O)Oc1ccc(NC(C)=O)cc1
 : -0.1	0.4%	6	0%	8%	-7	6%
CC(=O)c1cc(C(C)=O)c(C)nc1C
 : 8.1	.	-4	4%[15.4 µM]	5%	2	.
COc1ccc(N(C(=O)c2cccnc2)S(=O)(=O)c2ccccc2)cc1
 : -0.7	.	2	14%[15.4 µM]	-3%	-3	5%
O=C(Cn1cnc2c(nnn2Cc2ccc(F)cc2)c1=O)NCc1ccco1
 : 3.1	-0.3%	23	15%	-4%	1	2%

(list continues)
Each structure is followed by: Menin MLL FP FL	ClpP mod	TRPV1 PAM	gsp agonist	Sfp inh	D2 potentiator	gsp antagonist
Cc1ccc(-n2ncc3c(N4CCN(c5ccc(F)cc5)CC4)ncnc32)c(C)c1
 : 0.5	-2.3%	-3	4%	2%	-8	-19%
O=C1N=C(N2CCOCC2)S/C1=C\c1ccccc1OS(=O)(=O)c1ccccc1
 : 4.3	0.0%	-14	-25%	26%	1	-10%
C[C@H](CO)N1C[C@H](C)[C@@H](CN(C)S(=O)(=O)c2cn(C)cn2)Oc2cc(Br)ccc2S1(=O)=O
 : .	1.8%	.	-20%	.	5	.
C=C(C)c1cccc(C(C)(C)NC(=O)NCc2ccc(OC)cc2)c1
 : .	0.5%	?	0%[15.4 µM]	15%	6	4%
Cc1ccccc1CCN(CC(=O)NCc1ccc(F)cc1)C(=O)c1csnn1
 : .	?	-1	33%[15.4 µM]	6%	-6	-21%
Cc1ccc(Nc2c([N+](=O)[O-])ccc3c2=NC2(CCCCC2)N=3)cc1
 : -1.1	-1.5%	-12	-2%	6%	6	-9%
COc1ccc2c(c1)c(C(=O)N/N=C/c1ccc(O)c(O)c1)c(C)n2C
 : 0.6	-0.5%	27	-3%[15.4 µM]	-30%	2	0%
CC1C(=O)N2CCCc3cc(S(=O)(=O)N4CCN(c5ccccc5F)CC4)cc1c32 (stereo not given)
 : .	1.9%	6	1%	-3%	-1	1%
O=c1cc(N2CCCCC2)[nH]c(=O)n1C1CCCCC1
 : -0.1	-1.0%	-17	0%	-9%	-7	-7%
Cn1c(=O)[nH]c2cc(Cl)cnc21
 : ?	-6.7%	1	?	11%	-1	5%
COc1ccc(OC)c(Nc2nc(-c3c(C)nc4ncccn34)cs2)c1
 : -12	-4.5%	-10	34%	?	-9	-20%
CN1OC[C@@H]2CN(Cc3ccccc3)[C@H](c3cccc(-c4ccc(C#N)cc4)c3)C[C@@H]21
 : .	-9.0%	.	.	.	1	-20%
Cc1ccc2nc(/C(C#N)=N/O)[nH]c2c1
 : 5.1	-3.3%	-8	-77%[inhibitor]	-29%	10	-1%
C#CCNC(=O)C1=C[C@@H](c2ccc(Br)cc2)C[C@@H](OCc2ccc(CO)cc2)O1
 : 3.9	-1.3%	-18	.	8%	-17	-27%
Oc1c(C(c2ccccc2)N2CCN(Cc3ccccc3)CC2)sc2ncnn12 (stereo not given)
 : 2.0	-1.3%	-16	?	18%	-4	6%
CN=C(NC#N)SCC(=O)c1ccc(Cl)cc1Cl
 : -0.9	-2.1%	12	-33%	1%	-9	?
Cc1cc(C)cc(-n2c(C)cc(C(=O)CSc3nnnn3C)c2C)c1
 : 2.4	-0.3%	-11	24%	-17%	5	-18%
CCOc1ccc(C(=O)Nc2nnc(S(=O)(=O)Nc3ccccc3C)s2)cc1
 : -4.1	-6.1%	?	?	24%	-7	-11%
COCCn1c(SCC(=O)N2CCc3ccccc3C2)nc2cc(Cl)ccc2c1=O
 : 3.6	-1.4%	11	-5%	-18%	-14	-5%
CC(C)(C)OC(=O)N1CCC(c2cc(=O)n3[nH]c(-c4ccc(Cl)cc4)cc3n2)CC1
 : 4.1	-7.1%	.	-22%	-1%	-6	-11%
COc1ccc2oc(C(=O)OC(C)C(=O)N3CCC(C)CC3)c(C)c2c1 (stereo not given)
 : .	25µM*	-20	0%	.	3	-8%
